Screens (PubChem)
LANA-H2A inh = blocks KSHV LANA binding to histone H2A/H2B; cell-free LANA-H2A/H2B peptide, fluorescence polarization; inhibition, % (test concentration not listed); Q9QR71; 320,000 tested, 0.6% active; in the data active = inhibition mostly above about 10%, no sharp cut-off; inactive = mostly below about 6.7%;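 also: stock transfer was 7.5 nL into about 10 µL; 0% = median of vehicle wells and 100% = median of positive control wells; one replicate is shown; the record names a cut of 25% in any replicate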
Calb FLC = affects C. albicans growth with fluconazole; C. albicans CaCi-2 (fluconazole-resistant clinical isolate) + fluconazole, Alamar Blue growth, 48 h; AID 1979; 300,000 tested, 0.57% active; growth inhibition, % (no concentration beside the values);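 active = most replicates above 75%; inconclusive = exactly half above 75%; inactive = most below 75%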;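 also: all wells also contain fluconazole at 8 µg/ml as a sub-toxic cotreatment; 0% = median of DMSO wells and 100% = median of geldanamycin control wells; wells of about 8 µL received 7.5 nL stock; the first replicate is given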
Beta apoptosis = beta cell apoptosis inhibition | INS-1E cytokine-induced death, ATP luminescence, 48 h; percent of positive-control rescue, neutral wells zero | 300,000 tested, 0.8% active | protection from apoptosis, % (no concentration beside the values);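 active = all replicates at 75% or more, or half of them and the mean; inconclusive = half reach 75% but not the mean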;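 also: 0% = cytokine-treated negative control wells and 100% = positive control rescue; higher means more ATP so stronger rescue from cytokine killing; wells of about 40 µL received 100 nL stock; the first replicate is given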
Bfl-1 A1 inh = inhibitors of the anti-apoptotic protein A1, read as caspase activation; 330,000 tested, 0.066% active; MEF A1-2A-BIM cells, Caspase-Glo 3/7 luminescence, 3 h; percent of clofoctol response, vehicle zero; caspase activation, % (concentration not given with the values);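 active = over half of replicate activation scores above 10%, or exactly half above 10 with the replicate mean above 10; inconclusive = replicate mean below 10 yet half the replicates above 10; inactive = over half of replicates below 10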;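 also: wells of about 30 µL received 50 nL stock; many hits fall short of the cut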
T cruzi inh = T. cruzi replication inhibition; 300,000 tested, 1.4% active; T. cruzi beta-gal in NIH3T3, luminescence, 90 h; AID 1885; inhibition, % (test concentration not listed);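 active = mean inhibition across valid replicates above about 55%, limit read from the data; inconclusive = mean below that limit but half or more replicates reach it; inactive = mean below it, under half of replicates reach it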;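 also: signal also drops with host cell toxicity which is not excluded here; 0% = plate median of DMSO wells and 100% = zero luminescence signal; higher percent means less beta-gal luminescence so fewer parasites; stock transfer was 50 nL into about 50 µL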
Ecoli rRNA inh = inhibits bacterial ribosomal RNA function over humanized ribosomes | AID 720706 | E. coli WT GFP vs humanized-ribosome RFP mutants, fluorescence, 24 h; active compounds read low; DMSO median 0, no signal -100 | 350,000 tested, 1.6% active | GFP signal change (wild-type ribosome), % (test concentration not listed);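 active = significant combined selectivity score with lowered wild-type GFP, culture density cut under 30%, mutant RFP and density less affected; inactive = any of these conditions unmet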; also: one replicate is shown; some compounds called inactive have numbers as strong as hits
B2AR ag = agonists of human beta-2 adrenergic receptor inducing internalization; P07550; Am2.2-beta2AR cells, FAP receptor internalization, flow cytometry; reference of the scale not given here; response, % (no concentration beside the values); 340,000 tested, 0.43% active; AID 504454;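 active = response above a set limit, near 3 SD of response in nonfluorescent compounds, cut at about 42% in these data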;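 also: stock transfer was 100 nL into about 11 µL; a reference agonist was the positive control; negative values mostly stem from fluorescent compounds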
Target sequence (P07550 whole entry, looked up): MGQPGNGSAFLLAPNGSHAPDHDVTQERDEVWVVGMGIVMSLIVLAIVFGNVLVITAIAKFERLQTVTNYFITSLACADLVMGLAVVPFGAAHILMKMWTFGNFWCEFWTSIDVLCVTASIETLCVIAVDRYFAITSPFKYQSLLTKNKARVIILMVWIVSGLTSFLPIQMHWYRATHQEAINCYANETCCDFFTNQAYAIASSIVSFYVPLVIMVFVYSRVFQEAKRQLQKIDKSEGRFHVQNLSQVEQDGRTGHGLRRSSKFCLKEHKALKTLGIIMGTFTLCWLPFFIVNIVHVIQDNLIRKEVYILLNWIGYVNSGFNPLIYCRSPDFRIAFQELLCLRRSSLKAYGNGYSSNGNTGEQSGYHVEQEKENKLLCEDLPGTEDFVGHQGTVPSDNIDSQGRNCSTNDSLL
ALR inh = inhibitors of human sulfhydryl oxidase ALR; P55789; purified ALR, DTT oxidation, H2O2 HRP-luminol luminescence; inhibition, % (concentration not given with the values); 290,000 tested, 3.8% active;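 active = mean and each replicate at 75% or more; inconclusive = only one of the two met; inactive = neither met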;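 also: stock transfer was 7.5 nL into about 7.5 µL; 0% = neutral wells and 100% = wells with inactivated enzyme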
Target sequence (P55789 whole entry, looked up): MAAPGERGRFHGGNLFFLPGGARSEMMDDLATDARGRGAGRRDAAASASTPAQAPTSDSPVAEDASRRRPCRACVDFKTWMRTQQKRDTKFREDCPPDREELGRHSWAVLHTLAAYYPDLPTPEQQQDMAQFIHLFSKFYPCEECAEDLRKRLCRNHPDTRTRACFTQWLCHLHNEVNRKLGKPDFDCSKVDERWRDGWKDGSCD
Ecoli rRNA inh OD600 = recorded beside Ecoli rRNA inh, whose call it bears; OD600 change, %; measured here: OD600 growth;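 optical density of the mix in the first replicate; 0 = DMSO median and -100 = no signal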
Ecoli rRNA inh RFP = also measured in Ecoli rRNA inh; calls as there; RFP signal change, %; measured here: RFP humanized mutant strains;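 first replicate; 0 = DMSO median and -100 = no signal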
* = called active by the depositor; ? = inconclusive; . = not tested or not shown. These rows are one share of the data; the hit share may differ from the screen's.

SMILES	LANA-H2A inh	Calb FLC	Beta apoptosis	Bfl-1 A1 inh	T cruzi inh	Ecoli rRNA inh	Ecoli rRNA inh OD600	Ecoli rRNA inh RFP	B2AR ag	ALR inh
O=C1CN(C(=O)COC(=O)c2cnc(Cl)c(Cl)c2)c2ccccc2N1	2.9	-5	-2	-0.4	21	11	7	2.6	7	-4
CCOc1ccc(-c2noc(-c3cccnc3)n2)cc1OCC	7.9	27	3	-0.5	.	-3	1	-2.7	-19	.
CC1CCC(n2c(=S)[nH]c3ccccc3c2=O)CC1 (stereo unspecified)	1.1	-8	4	0.0	11	.	.	.	-15	-4
COc1ccc(C(=O)N2CCN(Cc3nc(CC4CC4)no3)CC2)cc1	1.9	-10	3	0.0	0	8	6	19	-4	-15
CCC(=O)NC1(C(F)(F)F)C(=O)NC(C)=C1C#N (stereo unspecified)	2.5	-4	-3	0.3	5	.	.	.	10	-22
Cc1ccc(NC(=O)CS(=O)CC(=O)N(C2CCCC2)C(C)C(=O)NC2CCCCC2)cc1 (stereo unspecified)	-1.9	12	-4	-1.3	-3	.	.	.	4	-3
CCOC(=O)N1C2=NC(C(=O)OC)=C(C(=O)OC)[C@@H]3N(Cc4ccccc4)c4ccccc4[C@]23C[C@H]1C(=O)OC	2.5	2	-7	-0.2	-8	.	.	.	.	-5
O=C1CCC([N+](=O)[O-])C(C2CC=CCC2)N1 (stereo unspecified)	0.3	-16	.	1.0	-6	3	-12	-3.3	4	2
COc1ccc(C)cc1S(=O)(=O)N(CC(=O)Nc1ccc2c(c1)OCCO2)Cc1ccccc1	1.4	8	11	-0.5	25	-17	-16	16	-7	-6
Cc1ccc(CO/N=C/C2=C(Cl)c3ccccc3CC2)cc1	7.3	-3	-2	0.7	-17	.	.	.	-4	-2
O=C(CN1CCC(NC(=O)C2CC2)CC1)Nc1cccc(F)c1	5.3	-3	-2	0.1	6	4	6	-0.8	11	-9
Cc1ccc(C(=O)N2CCCCCC2)cc1S(=O)(=O)Nc1ccccc1	-12	22	-2	0.0	14	-2	-2	2.0	6	-5
Cc1ccc(CNC(=O)C2CCC(CNc3nc(=S)[nH]c4ccccc34)CC2)cc1 (stereo unspecified)	-1.4	12	54	0.3	20	7	-2	2.7	-7	5
CCOC(=O)Cn1c(=NC(=O)C(C)C)sc2c(C)cc(C)cc21	-1.9	-6	-1	0.8	6	0	0	0.0	1	2
Nc1c(Br)c(=O)[nH]c(=O)n1-c1ccc(F)cc1	-3.4	10	-3	0.6	-2	3	4	2.5	-4	63
CC(C)Cn1nc(NS(=O)(=O)c2cccc3nonc23)c2cc3ccccc3nc21	-0.1	23	2	-0.1	-11	-2	-24	0.7	-4	97*
COc1ccc(CNC(=O)COc2cc3c(c4oc(=O)cc(C)c24)CCC(C)(C)O3)cc1	3.8	-4	5	0.8	23	.	.	.	8	-2
O=C(NCCCCc1ccccc1)c1ccccc1Br	-0.7	-5	0	0.2	8	-36*	-21*	-4.2*	-5	-10
CC1CCN(S(=O)(=O)N2CCC(C(=O)NCc3cccnc3)CC2)CC1	4.3	-11	0	0.1	-5	6	-2	-1.6	5	0
Cc1nnc(SCC(=O)NCc2ccccc2Cl)n(N)c1=O	1.0	0	5	-0.1	-22	16	16	2.7	0	-11
COc1ccc(NC(=O)CN2CCCN(S(=O)(=O)c3ccc(F)cc3)CC2)cc1	-2.5	-12	-8	1.0	-19	1	-3	-6.3	4	2
Nc1nc(CN2CCN(c3ccccc3F)CC2)nc(Nc2ccc3c(c2)OCCO3)n1	3.3	27	-2	-1.1	7	.	.	.	-5	-3
O=C(COc1ccccc1Cl)Nc1ccc(S(=O)(=O)Nc2ccccn2)cc1	-2.6	-6	-5	-1.3	-14	8	8	1.6	4	-3
CCCOc1ccc(N2C(=O)CC(NCCc3ccc(S(N)(=O)=O)cc3)C2=O)cc1 (stereo unspecified)	6.5	-7	-4	1.0	-12	.	.	.	0	-2
COc1ccc(C(=O)NCS(=O)(=O)c2ccc(C)cc2)cc1	1.2	-5	-7	-1.6	-9	.	.	.	3	73
CCCCn1cnc2c(c1=O)c1nc3ccccc3nc1n2Cc1ccc2c(c1)OCO2	-6.9	3	-7	-0.2	-8	3	5	3.8	-3	-3
COc1ccc(Cl)cc1NC(=O)C1CCCN(S(C)(=O)=O)C1 (stereo unspecified)	-0.5	3	-1	0.1	-3	3	-1	-0.4	2	-15
CCN(CC)C(=O)c1ccc(CS(=O)(=O)Cc2ccccc2)cc1	3.2	-24	-4	-0.1	-13	-10	-25	-6.7	12	3
CNC(=O)NC(=O)COC(=O)c1ccc(-n2c(C)ccc2C)cc1	-6.2	-2	-4	-1.0	-1	.	.	.	0	-12
CC(C)C[C@@H]1CN=C(N)N1C[C@@H]1CCCN1C[C@H](C)N1C[C@@H](Cc2ccccc2)N(CCc2ccc(Cl)c(Cl)c2)C1=N	-44	.	-4	0.6	.	.	.	.	-8	-11
C=CCNCCOCCOc1ccc(C)cc1[N+](=O)[O-]	3.3	-10	.	0.3	24	.	.	.	2	1
NC(=O)C[n+]1ccc(/C=N/O)cc1	0.1	-12	-4	0.9	-3	9	14	-0.7	0	.
COc1cc2c(cc1OC)C1=C(C#N)CN(C3CCCCC3)CN1CC2	1.8	-3	-8	0.4	-1	-5	-4	0.2	27	.
Cc1cccc(NC(=O)CSc2cccc3cccnc23)c1	5.5	-63	9	0.1	35	-11	-15	-1.0	8	-11
COc1ccc(S(=O)(=O)Nc2nc3ccccc3s2)cc1	2.9	56	-1	-0.1	8	.	.	.	-7	-9
CC(C(=O)N1CCCCC1)N1CCN(S(=O)(=O)c2ccc(Cl)cc2)CC1 (stereo unspecified)	1.6	.	-9	0.5	.	.	.	.	2	-3
Cc1ccnc2nc(C(=O)OCC(=O)Nc3ccc4c(c3)OC(F)(F)O4)nn12	-4.0	6	-3	0.7	8	.	.	.	-8	5
CCOC(=O)C1=C(C)N=c2s/c(=C3\C(=O)Nc4ccccc43)c(=O)n2C1c1ccc2c(c1)OCO2 (stereo unspecified)	-1.2	3	.	0.2	-15	.	.	.	-5	0
Cc1ccc(-c2nc3cccnc3o2)cc1NC(=O)COc1ccc(C(C)(C)C)cc1	-1.4	-7	34	0.2	14	.	.	.	24	1
CCOc1ccc2nc(-c3cc(NC(C)=O)ccc3O)sc2c1	-7.3	4	-2	-0.3	14	8	2	-3.1	-6	-25
COC(=O)C1=C(C)N(C2CCCCC2)C(=O)C1	-0.8	-9	.	-0.3	-4	.	.	.	11	.
O=C(CCCOc1ccc(Cl)cc1)Nc1nncs1	0.4	-3	-3	0.2	5	.	.	.	-1	16
CCC1=C(OC(=O)N(CC)CC)N2C(=O)OC(=NCC3CC3)[C@]2(Cc2ccccc2)[C@H]2C1=CC[C@H]1C(=O)NC(=O)[C@H]12	2.9	12	-1	-0.2	-8	8	10	0.1	16	-15
CN1C2CCC1/C(=C\c1ccccc1F)C(=O)/C2=C/c1ccccc1F	-0.6	-11	4	1.5	32	.	.	.	10	-1
CCNC(=S)N1CCN(Cc2ccccc2)CC1	-2.1	?	0	0.8	1	8	8	-1.6	2	1
CCOC(=O)Cc1c(C)[nH]c(=S)[nH]c1=O	0.0	-3	-2	-0.1	-10	.	.	.	1	12
CS(=O)(=O)N1CCC(C(=O)Nc2ccc(Oc3ccccc3)cc2)CC1	-1.4	6	-6	-0.2	-16	.	.	.	2	-7
O=C(c1ccc(N2CCOCC2)c([N+](=O)[O-])c1)N1CCN(S(=O)(=O)c2cccs2)CC1	-4.7	-6	1	1.1	16	3	-2	1.5	2	-2
COc1ccc(C2(c3ccc(OC)cc3)NC(=O)N(CC(=O)NC(C)C)C2=O)cc1	4.3	1	3	1.0	-13	1	-4	-2.0	18	-7
O=C1c2ccc(Oc3ccc4c(c3)C(=O)N(CCCCO)C4=O)cc2C(=O)N1CCCCO	3.9	.	0	-0.1	-12	.	.	.	0	.
CSc1ccccc1C(=O)N1CCC(CCC(=O)NCc2ccc(F)cc2)CC1	1.2	-11	-2	-0.5	21	4	14	-2.3	-5	0
O=C(O)CSCC(=O)NCc1ccccc1	1.7	7	-5	0.8	-19	8	5	3.9	6	-9
Nc1ccccc1SCc1ccccc1	3.1	-15	-11	0.4	20	1	-5	-1.2	6	25
CCOc1ccc(-n2cnnn2)cc1S(=O)(=O)N1CCCCC1	0.6	0	-4	0.1	-9	.	.	.	3	-11
CCCNC(=O)c1ccc(Cl)c(Cl)c1	3.6	-16	3	-0.3	-9	.	.	.	-3	-5
Cc1ccc(NC(=O)CCNC(=O)c2ccccc2Cl)cc1S(=O)(=O)N(C)C	-1.3	0	-2	0.6	-5	.	.	.	1	1
COc1cc2c(C(=O)N3CCN(C)CC3)c(CSc3ccccc3)n(C)c2cc1Br	0.6	22	-11	-0.2	13	.	.	.	7	-18
CCCCN1C(=N)N([C@@H](C)CN2CCC[C@H]2CN2C(N)=NC[C@H]2CC(C)C)C[C@H]1[C@H](C)CC	-4.1	.	0	0.1	.	11	7	4.3	-4	4
CC(C)(C)c1ccc(-c2nc(C#N)c(NCc3cccnc3)o2)cc1	-8.4	27	1	.	16	.	.	.	15	10
COc1ccc(Cl)cc1C(=O)CSc1nc(N)cc(N)n1	3.5	-16	-15	-0.3	-12	.	.	.	-8	94*
More entries
SMILES	LANA-H2A inh	Calb FLC	Beta apoptosis	Bfl-1 A1 inh	T cruzi inh	Ecoli rRNA inh	Ecoli rRNA inh OD600	Ecoli rRNA inh RFP	B2AR ag	ALR inh
O=C(C(=O)N1CCN(c2ccc([N+](=O)[O-])cc2)CC1)c1cn(CC(=O)N2CCOCC2)c2ccccc12	4.9	.	2	0.8	11	1	-3	7.7	3	-5
CCOc1cccc(C(=O)Nc2ccncc2)c1	.	-9	11	-1.7	8	2	-2	0.0	-5	.
Cc1nnc(-c2ccccc2)[nH]c1=O	2.8	14	-2	0.3	-4	4	-3	-2.9	-3	3
Cc1cccc(OCCn2cc(/C=N/NC(=O)c3ccncc3)c3ccccc32)c1	4.6	3	-1	-0.1	9	.	.	.	-5	0
O=[N+]([O-])c1cc(S(=O)(=O)Nc2ccccc2)ccc1N1CCN(c2ccc(O)cc2)CC1	.	22	5	0.1	2	-15	-20	-4.3	10	.
Cc1cc(OC(=O)c2ccccc2Br)c([N+](=O)[O-])c(=O)[nH]1	6.7	-10	1	0.1	-22	8	16	-0.8	-4	-3
COc1ccc(C)cc1S(=O)(=O)Nc1ccccc1C	4.2	-8	-5	2.6	-4	.	.	.	13	-11
C/C(=N\NC(=O)c1ccc(Cl)cc1)c1cccc(NC(=O)c2cccnc2)c1	.	-3	0	0.0	4	.	.	.	-8	.
Cc1nn(C(C)C(=O)Nc2ccc(Cl)cn2)c(C)c1[N+](=O)[O-] (stereo unspecified)	-1.9	2	-4	0.9	-13	3	-2	-6.8	21	8
